# VDR inhibitor: inhibitors of human vitamin D receptor; VDR-SRC2-3 peptide fluorescence polarization, 2 h; Potency, µM, for the others: max response, negative = inhibition, usual class: inhibitors; 400,000 compounds, 0.93% hits; AID 504847; active = well fitted inhibition curve with a large enough effect; inconclusive = small, poorly fitted or top-dose-only effect, or another doubt; inactive = no such curve, though single readings can be large or run the other way; also: series mostly up to about 120 µM
# Target sequence (P11473 whole entry, looked up): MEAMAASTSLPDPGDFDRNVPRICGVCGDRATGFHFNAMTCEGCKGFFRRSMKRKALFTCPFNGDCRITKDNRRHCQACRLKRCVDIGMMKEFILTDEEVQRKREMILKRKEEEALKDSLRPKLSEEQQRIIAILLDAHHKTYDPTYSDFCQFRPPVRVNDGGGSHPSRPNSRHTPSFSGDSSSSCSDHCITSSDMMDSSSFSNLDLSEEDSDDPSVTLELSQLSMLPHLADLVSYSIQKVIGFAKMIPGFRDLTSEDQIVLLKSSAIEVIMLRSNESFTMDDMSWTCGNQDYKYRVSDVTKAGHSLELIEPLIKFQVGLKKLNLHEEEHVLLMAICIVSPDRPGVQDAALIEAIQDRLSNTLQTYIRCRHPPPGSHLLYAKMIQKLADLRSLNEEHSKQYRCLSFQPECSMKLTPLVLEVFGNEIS
#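 Inhibition of the VDR/SRC2-3 peptide interaction is quantified by fluorescence polarization. Compounds (23 nl, pintool) incubate with the reagents for 2 hours at ambient room temperature.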
# An asterisk follows results filed as active; ? = inconclusive. % is scaled to controls: 0 for no effect and ±100 for the full control effect; potency is read from the fitted curve at half-maximal effect. A portion of the library; the hit share may differ from the screen's.
SMILES,VDR inhibitor
CSC(=CC(=O)c1ccccc1)SC,9.4%
Cc1cc(Sc2nc(N)ncc2[N+](=O)[O-])ncn1,-18.2%
Cc1ccc(-c2sc(C)nc2CC(=O)O)cc1,-2.7%
Cc1ccc(F)c(NC(=O)C2CCCCC2C(=O)O)c1 (configuration not stated),-5.0%
CCN(CC)S(=O)(=O)c1ccc2c(c1)N(CC(=O)NCCc1ccc(OC)c(OC)c1)C(=O)CO2,14.2%
Cc1cccc(C(=O)Oc2c(Br)cc(Br)cc2/C=N/NC(=O)c2ccncc2)c1,?
CCn1nc(C)c(CN2CCC(Oc3ccc(C(=O)N4CCCC4)cc3)CC2)c1C,?
CCc1ccc2oc(C(=O)NCc3ccccc3)cc(=O)c2c1,16.8%
COc1ccc(C2C3=C(CC(C)(C)CC3=O)Oc3ncn(Cc4ccccc4)c(=N)c32)cc1 (configuration not stated),-6.3%
COc1cc2cc(CCOC(=O)c3ccc(C#N)cc3)oc(=O)c2cc1OC,-2.5%
C/C(=N\N(C)C)C1=C(O)c2ccccc2C1=O,-0.2%
CC(C)(C)OC(=O)N1CCC(c2c(C(=O)NCC3CCN(C4CCCC4)C3)cnn2-c2ccccc2)CC1 (configuration not stated),9.7%
O=C(CCS(=O)(=O)c1ccccc1)Nc1nc2c(s1)COc1ccccc1-2,-7.7%
COc1ccc(C(=O)Nc2nnc(Cc3cccs3)s2)cc1OC,-8.4%
COc1ccc2c(c1)OC(C)(C)C(c1ccccc1)C2c1ccc(OCCN2CCCC2)cc1 (configuration not stated),-6.8%
O=C(NCc1ccccc1)C1=C[C@@H](c2ccc(Br)cc2)C[C@@H](OCc2ccc(CO)cc2)O1,0.0%
CCOc1ccc(NC(=S)NC(=O)/C=C/c2ccc(C)cc2)c([N+](=O)[O-])c1,-15.8%
CCOc1cccc(=O)c2c(C)n(-c3ccc(C(=O)O)cc3)c(C)c12,-22.4%
COc1ccc(Cn2c(=O)[nH]c3cc(C(=O)N4CCN(c5ccccc5F)CC4)ccc3c2=O)cc1,-7.0%
S=c1nc[nH]c2c1cnn2Cc1ccccc1,-8.2%
O=C(CCC(=O)N1CC2CCCN2c2ccccc21)NCc1cccc(Cl)c1 (configuration not stated),0.8%
CCOC(=O)Nc1cc(NC(=O)OCC)c(C)nc1C,2.3%
CC(Cc1c[nH]c2ccccc12)C(=O)NCc1ccco1 (configuration not stated),-0.9%
CC(=O)Nc1cccc(OCCCNS(=O)(=O)c2ccc(F)cc2)c1,-16.0%

# Four compounds out of the list, sorted by heavy-atom count, ascending.
SMILES,VDR inhibitor
CC(Cc1c[nH]c2ccccc12)C(=O)NCc1ccco1 (configuration not stated),-0.9%
COc1ccc(C(=O)Nc2nnc(Cc3cccs3)s2)cc1OC,-8.4%
CCOc1ccc(NC(=S)NC(=O)/C=C/c2ccc(C)cc2)c([N+](=O)[O-])c1,-15.8%
COc1ccc2c(c1)OC(C)(C)C(c1ccccc1)C2c1ccc(OCCN2CCCC2)cc1 (configuration not stated),-6.8%

# The list goes on.
SMILES,VDR inhibitor
Cc1c(NC(=S)NC(=O)C(C)(C)C)cccc1[N+](=O)[O-],4.4%
Cc1cc(NC(=O)CN2CCOCC2)n(-c2ccccc2)n1,-7.1%
COc1ccc(CCNC(=O)c2cccc(-n3c(C)nc4cccnc43)c2)cc1OC,14.0%
CCCC(=O)NC(Nc1ccc(S(=O)(=O)Nc2cc(C)on2)cc1)(C(=O)OCC)C(F)(F)F (configuration not stated),7.9%
O=C(NCc1cn(-c2ccccc2)nc1-c1ccccc1)c1ccc([N+](=O)[O-])cc1,-12.9%
Nc1ccc(C(=O)Nc2ccc3c(O)cc(S(=O)(=O)O)cc3c2)cc1,-6.6%
Cc1cc(C(=O)NCC2CCCO2)n(-c2ccccc2)n1 (configuration not stated),-6.7%
Cc1nc2sc(C(c3ccc(Cl)cc3)N3CCN(CCO)CC3)c(O)n2n1 (configuration not stated),11.1%
Cc1ccc(N2C(=O)Nc3cc(Cl)c(Cl)cc3N2O)cc1Cl,4.9%
Cc1ccc(Nc2ccc(NCc3ccccc3)nn2)cc1C,-8.7%
C=CCn1c(SCC(=O)NCCc2ccccc2)nc2c([nH]c3ccccc32)c1=O,3.1%
CC1CCc2c(C(=O)N3CCN(S(=O)(=O)c4cccs4)CC3)csc2C1 (configuration not stated),3.6%
O=C(COC(=O)c1ccc(O)cc1)NCC1COc2ccccc2O1 (configuration not stated),-9.7%
CCOc1ccc2nc(SCC(=O)NCc3ccccc3OC)[nH]c2c1,-1.8%
c1ccc2c(c1)OCCc1c-2[nH]c2ccccc12,5.0%
N#Cc1ccccc1OCC(=O)OCC(=O)NC1CCS(=O)(=O)C1 (configuration not stated),0.3%
O=C(COC(=O)c1cccc(C(F)(F)F)c1)NC(=O)NC1CCCC1,12.3%
CC(OC(=O)CN(C)S(=O)(=O)c1ccc(Cl)cc1)C(=O)Nc1ccc(N2CCOCC2)cc1 (configuration not stated),-4.4%
O=C(CN1CCOCC1)Nc1cccc([N+](=O)[O-])c1,-1.6%
CCOC(=O)Cn1c(=O)n(CC(=O)OCC)c2ccccc21,-14.7%
O=C(N/N=C/c1cccc(O)c1)c1cc(C2CC2)nc2ccccc12,-5.1%
Cc1ccc(S(=O)(=O)N2CCC(=O)N(CCOC(=O)Nc3ccccc3C)CC2)cc1,-10.8%
CCC(C)NC(=O)C1CCC(CNS(=O)(=O)c2ccc3c(c2)CC(C)N3C(=O)C2CC2)CC1 (configuration not stated),-4.9%
O=c1c2ccccc2nc2n1C(CSCc1ccc(Cl)cc1)CS2 (configuration not stated),13.5%
CCOc1ccc(NC(=O)CN(C)C(=O)CCN2C(=O)C3CC=CCC3C2=O)cc1OCC (configuration not stated),-1.9%
CC(C)(C)c1ccc(C(=O)CSc2n[nH]c(=O)[nH]c2=O)cc1,-4.2%
C=CCn1c2ccccc2c2nn(C)c(=S)nc21,-6.9%
Cc1ccc(N(CC(=O)N2CCOCC2)S(C)(=O)=O)cc1Cl,-12.1%
O=C(NC1CCCCC1)N1CCCCCCC1,-9.6%
Cc1cc(C)n(CC(O)COc2c(C)cccc2C)n1 (configuration not stated),-15.8%
COc1ccccc1NC(=O)CSc1ccc2nnc(-c3cccnc3)n2n1,1.9%
O=C(NCc1cc([N+](=O)[O-])ccc1O)c1cc(-c2ccncc2)nc2ccccc12,14.4%
CC1(C)Cc2ccccc2C(C(Cc2ccccc2)C(N)=O)=N1 (configuration not stated),-7.5%
CC(C)(C)C(=O)Nc1ccc2nc(SCc3ccccc3)sc2c1,1.8%
N#Cc1ccc(CN2CCN(C(=O)CCNS(=O)(=O)c3ccc(F)c(Cl)c3)CC2)cc1,1.3%
COc1ccccc1CCn1c(=O)c(-c2cccc(Cl)c2)nc2cncnc21,-16.7%
O=C(O)CCn1c(SCCOc2ccccc2)nc2ccccc21,2.2%
Cc1ccccc1Nc1nn2c(=O)c3ccc(C(=O)NCc4cccs4)cc3nc2s1,15.8%
CCOc1cc(C(=O)OCC(=O)c2cc(C)n(CC3CCCO3)c2C)ccc1OCC(=O)N1CCOCC1 (configuration not stated),10.6%
CCC(CC)C(=O)Nc1ccccc1NC(C)=O,0.0%
O=C1NC[C@H](CC2CCCCC2)N(CC2CCCCC2)C1=O,12.6%
c1csc(CNc2nc(-c3cccs3)nc3ccccc23)c1,-4.2%
CC1(C)CC[C@]2(C(=O)O)CC[C@]3(C)C(=CC[C@@H]4[C@@]5(C)CC[C@H](O)C(C)(C)[C@@H]5CC[C@]43C)[C@@H]2C1,-27.0%
CC(CCc1ccccc1)NC(=O)COC(=O)c1ccccc1O (configuration not stated),-9.5%
O=C(N[C@@H](Cc1ccc(O)cc1)C(=O)O)C(c1ccccc1)c1ccccc1,-7.0%
CN(C)c1ccc(C(=O)N2CCNC(=O)C2CC(=O)Nc2ccc(F)cc2)cc1 (configuration not stated),?
CCOC(=O)Nc1cccc2c1-c1ccc([N+](=O)[O-])cc1C2=O,-1.4%
COC(=O)c1c(NC(=O)c2cc3ccccc3c(=O)o2)sc2c1CCCC2,0.9%
O=c1cc(-c2ccccc2F)nc(-c2ccccc2F)o1,25.9%
CS(=O)(=O)Nc1cccc(-c2ccc3ncnc(NCCN4CCOCC4)c3c2)c1,-6.8%
Cc1ccccc1NS(=O)(=O)c1ccc2[nH]cc(C(=O)N3CCCCC3)c(=O)c2c1,4.4%
CCCc1ccc2oc(C(=O)N(Cc3nccn3C)C(C)C)c(C)c2c1,-5.6%
O=C(Nc1nccs1)c1csc2c1CCCC2,-11.5%
CCc1ccc(N2CCn3c2nc2c3c(=O)n(CCc3ccccc3)c(=O)n2C)cc1,1.8%
COc1cccc(/C=N/NC(=O)c2c(-c3ccccc3)noc2C)c1,6.8%
O=C(NCc1ccc2c(c1)OCO2)C(=O)NCC1CCCO1 (configuration not stated),-7.4%
Cc1nn(C(C)C(=O)NCc2ccccc2F)c(=O)c2nn(-c3ccccc3)c(C)c12 (configuration not stated),6.7%
COc1ccc(-c2noc(CCCC(=O)NC3CCCC3)n2)cc1OC,-12.3%
Cc1cc(=S)cc(C)n1CCCO,-8.6%
O=C(NCc1ccccc1)C(c1ccco1)N(C(=O)c1csnn1)c1ccccc1 (configuration not stated),16.1%
# Other records follow:
SMILES,VDR inhibitor
Cc1cc(C(=O)CN2C(=O)NC3(CCCc4ccccc43)C2=O)c(C)n1Cc1cccs1 (configuration not stated),-3.9%
CC(C)c1ccc2oc(=O)cc(CN3CCOCC3)c2c1,-10.6%
CCN(Cc1ccccc1)S(=O)(=O)c1c(C)n(C)c(=O)n(C)c1=O,-23.9%
CC(C)(C)OC(=O)NCc1ccc(CNC(=O)c2[nH]cnc2C(=O)N[C@@H](Cc2ccccc2)C(=O)OCc2ccccc2)cc1,-22.1%
O=S(=O)(Cc1nc2ccccc2s1)c1ccccc1,-2.7%
CCOc1ncccc1C(=O)N(CCC(C)C)c1c(N)n(Cc2ccccc2)c(=O)[nH]c1=O,24.5%
O=C(/C=C/c1cccc(Br)c1)c1ccc2c(c1)OCO2,?
O=C(COC(=O)c1cc([N+](=O)[O-])ccc1N1CCOCC1)c1ccccc1,10.4%
Cc1cccc(-n2c(SCC(=O)Nc3cccc(S(=O)(=O)NC4=NCCCCC4)c3)nc3ccccc3c2=O)c1C,?
CCOc1ccc(CNS(=O)(=O)c2c(C(=O)N3CCCCCC3)c(C)n(C)c2C)cc1OC,4.4%
COc1ccc(CC(=O)NCCc2ccc(Cl)cc2Cl)cc1,-3.2%
COc1ccc(CN2CCCC(CNC(=O)c3ccc(F)cc3)C2)cc1OC (configuration not stated),13.4%

# Some of the entries so far, with tabs.
Compound	VDR inhibitor
Cc1cc(=S)cc(C)n1CCCO	-8.6%
O=C(NCc1ccccc1)C(c1ccco1)N(C(=O)c1csnn1)c1ccccc1 (configuration not stated)	16.1%
Cc1cc(C(=O)CN2C(=O)NC3(CCCc4ccccc43)C2=O)c(C)n1Cc1cccs1 (configuration not stated)	-3.9%
CC(C)c1ccc2oc(=O)cc(CN3CCOCC3)c2c1	-10.6%
CCN(Cc1ccccc1)S(=O)(=O)c1c(C)n(C)c(=O)n(C)c1=O	-23.9%
CC(C)(C)OC(=O)NCc1ccc(CNC(=O)c2[nH]cnc2C(=O)N[C@@H](Cc2ccccc2)C(=O)OCc2ccccc2)cc1	-22.1%

# The list goes on:
SMILES,VDR inhibitor
CCOc1ccc2nc(NCCCNS(=O)(=O)c3ccccc3)c(C#N)cc2c1,0.4%
Cc1ccc(C2=NS(=O)(=O)N(C)C(C(=O)NCc3ccco3)=C2)cc1,2.8%
COc1ccc(NC(=O)c2sc3nc(-c4cc5ccc(OC)cc5oc4=O)[nH]c(=O)c3c2C)cc1,-5.7%
CC(=O)N1CCc2cc(S(=O)(=O)NCCC3=CCCCC3)ccc21,-3.0%
COc1ccc(-c2cc(C(F)(F)F)n3nc(C(=O)Nc4cccc(Cl)c4Cl)cc3n2)cc1OC,-15.5%
Cc1cccn2c(=O)cc(COc3ccc(NC(=O)C(C)C)cc3)nc12,-11.3%
O=C1CCC/C=C\C[C@@H](CC(=O)N(CCO)Cc2ccccc2)C(=O)N[C@H](Cc2c[nH]c3ccccc23)CO1,2.3%
O=C(Cc1ccc(Br)cc1)N1CCCCCC1,-21.4%
Cc1noc(C(=O)Nc2cccc(O)c2)c1Cl,4.8%
COCCC(=O)N1CCC(Oc2ccc(C(=O)N3CCCCCCC3)cc2)CC1,24.2%
CCC(=O)N1CCc2cc(S(=O)(=O)N(C)c3ccc(OC)cc3OC)ccc21,-4.9%
COc1ccc2c(C)c(CC(=O)NCc3ccccc3Cl)c(=O)oc2c1OC,2.0%
Cc1cc(NC(=O)c2ccc(NC(=O)CCS(=O)(=O)c3cccs3)cc2)ccc1Br,-12.6%
Cc1nc2ccccc2nc1N/N=C/c1ccc(O)cc1O,8.1%
CCCCn1c(N)c(N(C)C(=O)c2ccccc2Oc2ccccc2)c(=O)[nH]c1=O,-18.1%
CCc1nn2c(=O)cc(COC(=O)Cc3ccccc3)nc2s1,7.1%
O=c1[nH]nc(CSCc2ccccc2Cl)[nH]1,-4.5%
CN(C)c1ccc(C=NNC(=O)c2cccc3ccccc23)c(Cl)c1,-6.5%
O=C(NCCc1c[nH]c2ccccc12)Nc1ccccc1,1.0%
CCc1c(C)sc(NC(=O)CCc2ccc(OC)cc2)c1C(N)=O,-20.6%
COC(=O)[C@H](NCc1ccc(OC)c(B(O)O)c1)C(C)C,-14.7%
COc1ccc(Br)c(C(=O)OCC(=O)N2CCC(Cc3ccccc3)CC2)c1,0.9%
Cc1cc(C)nc(N2CCC(C(=O)Nc3ccc4c(c3)OCO4)CC2)n1,8.8%
NC(=O)NC(=O)C(c1ccccc1)N1CCN(S(=O)(=O)Cc2ccccc2)CC1 (configuration not stated),-26.7%
CCC(=O)Nc1sc2c(c1C(=O)N(C)C)CCCCC2,-23.6%
c1ccc(-c2nnc(CN3CCC4(CC3)OCCO4)o2)cc1,-4.9%
CCCCN1CC(Br)C(=O)NC1=O (configuration not stated),10.5%
CC1=C(C(=O)OC(C)C)C(c2cccs2)NC(=O)N1 (configuration not stated),8.8%
COc1cc(C(=O)Nc2nnc(CC(C)C)s2)c([N+](=O)[O-])cc1OC,1.4%
CNC(=O)c1[nH]cnc1C(=O)Nc1ccccn1,6.4%
Cc1ccccc1NC(=O)CCC(=O)N/N=C/c1cccnc1,9.3%

# High-throughput results (PubChem BioAssay)
